# Ran FRET: inhibitors of Ran–importin-beta complex formation, primary screen, biochemical, CFP-Ran/YFP-importin-beta FRET, RCC1, cell-free (AID 434961) | Regulator of chromosome condensation (Homo sapiens) + GTP-binding nuclear protein Ran … | CFP-Ran/YFP-importin-beta FRET, cell-free; hits give high values | inhibition, % | 7,700 tested, 0.2% active;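 active = more than half of the replicate wells above 15% inhibition; inconclusive = exactly half above it; inactive = fewer than half above it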;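 note: 0% = DMSO wells and 100% inhibition = RanGDP control wells on each plate; stock of unstated strength diluted about 400-fold; mean of two wells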
# Numbers without * were called inactive; ? = inconclusive. These rows are one share of the data (hit frequency here may not be typical).
SMILES,Ran FRET
CNC[C@@H]1Oc2c(NC(=O)c3ccc(-c4nccs4)cc3)cccc2C(=O)N([C@@H](C)CO)C[C@@H]1C,-6.6
CC(C)NC(=O)Nc1ccc2c(c1)C(=O)N([C@H](C)CO)C[C@@H](C)[C@@H](CN(C)S(=O)(=O)c1cccs1)OCCCC[C@@H](C)O2,2.4
C[C@H]1CN([C@@H](C)CO)C(=O)Cc2cc(NS(=O)(=O)c3ccccc3)ccc2O[C@H]1CN(C)C(=O)NC1CCCCC1,2.4
Cc1noc(C)c1S(=O)(=O)Nc1ccc2c(c1)C(=O)N([C@H](C)CO)C[C@@H](C)[C@@H](CN(C)C(=O)CCC(F)(F)F)OCCCC[C@@H](C)O2,?
CNC[C@H]1Oc2ccc(NC(=O)Nc3cccc4ccccc34)cc2CC(=O)N([C@H](C)CO)C[C@H]1C,9.4
Cc1noc(C)c1NC(=O)N(C)C[C@@H]1OCCCC[C@H](C)Oc2ccc(NS(=O)(=O)c3cn(C)cn3)cc2C(=O)N([C@@H](C)CO)C[C@@H]1C,1.4
CNC[C@H]1Oc2ccc(NC(=O)CCC(F)(F)F)cc2C(=O)N([C@@H](C)CO)C[C@@H]1C,-2.1
C[C@@H]1CN([C@H](C)CO)C(=O)c2cc(NS(=O)(=O)c3cn(C)cn3)ccc2O[C@H]1CN(C)Cc1ccccc1,3.7
C[C@@H]1CN([C@H](C)CO)C(=O)c2cc(NC(=O)Nc3cccc4ccccc34)ccc2O[C@@H]1CN(C)C(=O)NC1CCCCC1,-0.4
C[C@@H]1CN([C@@H](C)CO)C(=O)c2cc(NC(=O)CCC(F)(F)F)ccc2O[C@@H](C)CCCCO[C@@H]1CN(C)C,-8.1
Cc1noc(C)c1S(=O)(=O)Nc1ccc2c(c1)CC(=O)N([C@H](C)CO)C[C@@H](C)[C@H](CN(C)C(=O)Nc1ccc(C(F)(F)F)cc1)O2,-6.0
CNC[C@@H]1OCCCC[C@@H](C)Oc2ccc(NS(=O)(=O)c3c(C)noc3C)cc2C(=O)N([C@H](C)CO)C[C@H]1C,-5.1
Cc1noc(C)c1S(=O)(=O)N(C)C[C@@H]1OCCCC[C@@H](C)Oc2ccc(NC(=O)CCCN(C)C)cc2C(=O)N([C@@H](C)CO)C[C@H]1C,-3.7
C[C@H]1CN([C@@H](C)CO)C(=O)CCCn2cc(nn2)CO[C@@H]1CN(C)S(=O)(=O)c1ccc(-n2cccn2)cc1,1.0
C[C@@H]1CN([C@@H](C)CO)C(=O)c2cc(NC(=O)Nc3ccc(C(F)(F)F)cc3)ccc2O[C@H]1CN(C)C(=O)NC1CCCCC1,-1.8
C[C@H]1CCCCO[C@@H](CN(C)C(=O)Nc2ccccc2)[C@@H](C)CN([C@@H](C)CO)C(=O)c2cc(NC(=O)c3ccccc3)ccc2O1,1.2
Cc1noc(C)c1S(=O)(=O)Nc1ccc2c(c1)C(=O)N([C@H](C)CO)C[C@H](C)[C@H](CN(C)C(=O)NC1CCCCC1)O2,-2.9
C[C@H]1CN([C@@H](C)CO)C(=O)Cc2cc(NS(=O)(=O)c3ccccc3)ccc2O[C@@H]1CN(C)Cc1ccc2c(c1)OCO2,0.9
C[C@H](CO)N1C[C@H](C)[C@H](CN(C)Cc2ccc3c(c2)OCO3)Oc2c(NC(=O)c3ccncc3)cccc2C1=O,-1.0
Cc1noc(C)c1NC(=O)Nc1ccc2c(c1)C(=O)N([C@@H](C)CO)C[C@H](C)[C@@H](CN(C)C(=O)Nc1c(C)noc1C)O2,-0.7
C[C@H](CO)N1C[C@H](C)[C@@H](CN(C)C(=O)Nc2ccc(C(F)(F)F)cc2)Oc2c(NS(=O)(=O)c3ccc(Cl)cc3)cccc2C1=O,-0.2
COc1ccc(S(=O)(=O)N(C)C[C@@H]2Oc3c(NS(=O)(=O)c4ccccc4)cccc3C(=O)N([C@H](C)CO)C[C@H]2C)cc1,3.3
C[C@H](CO)N1C[C@H](C)[C@@H](CN(C)Cc2ccc(C(F)(F)F)cc2)Oc2ccc(NC(=O)C3CC3)cc2C1=O,3.5
C[C@H](CO)N1C[C@H](C)[C@H](CN(C)Cc2ccc3c(c2)OCO3)Oc2ccc(NC(=O)Nc3ccc(F)cc3)cc2C1=O,-3.3
C[C@H]1CCCCO[C@@H](CN(C)S(=O)(=O)c2ccccc2)[C@@H](C)CN([C@@H](C)CO)C(=O)c2cc(NC(=O)C3CCCCC3)ccc2O1,0.0

# Single entries from the results shown.
# `Cc1noc(C)c1NC(=O)Nc1ccc2c(c1)C(=O)N([C@@H](C)CO)C[C@H](C)[C@@H](CN(C)C(=O)Nc1c(C)noc1C)O2` in Ran FRET shows -0.7
# `Cc1noc(C)c1NC(=O)N(C)C[C@@H]1OCCCC[C@H](C)Oc2ccc(NS(=O)(=O)c3cn(C)cn3)cc2C(=O)N([C@@H](C)CO)C[C@@H]1C` in Ran FRET shows 1.4
# `C[C@H](CO)N1C[C@H](C)[C@@H](CN(C)Cc2ccc(C(F)(F)F)cc2)Oc2ccc(NC(=O)C3CC3)cc2C1=O` in Ran FRET shows 3.5
# `CNC[C@H]1Oc2ccc(NC(=O)CCC(F)(F)F)cc2C(=O)N([C@@H](C)CO)C[C@@H]1C` in Ran FRET shows -2.1
# `C[C@H]1CN([C@@H](C)CO)C(=O)Cc2cc(NS(=O)(=O)c3ccccc3)ccc2O[C@@H]1CN(C)Cc1ccc2c(c1)OCO2` in Ran FRET shows 0.9

# Back to the main list with the 2 entries that preceded the break.
SMILES,Ran FRET
C[C@H](CO)N1C[C@H](C)[C@H](CN(C)Cc2ccc3c(c2)OCO3)Oc2ccc(NC(=O)Nc3ccc(F)cc3)cc2C1=O,-3.3
C[C@H]1CCCCO[C@@H](CN(C)S(=O)(=O)c2ccccc2)[C@@H](C)CN([C@@H](C)CO)C(=O)c2cc(NC(=O)C3CCCCC3)ccc2O1,0.0
Cc1noc(C)c1S(=O)(=O)N(C)C[C@@H]1Oc2ccc(NS(=O)(=O)c3cccs3)cc2C(=O)N([C@H](C)CO)C[C@@H]1C,-3.4
CC(C)NC(=O)Nc1ccc2c(c1)C(=O)N([C@@H](C)CO)C[C@H](C)[C@@H](CN(C)C(=O)c1ccncc1)OCCCC[C@H](C)O2,-0.7
COc1ccc(CN(C)C[C@H]2Oc3ccc(NC(=O)Nc4ccc(OC)cc4)cc3C(=O)N([C@@H](C)CO)C[C@H]2C)cc1,2.6
C[C@@H]1CCCCO[C@H](CN(C)C)[C@@H](C)CN([C@H](C)CO)C(=O)c2cc(NS(=O)(=O)c3ccc(Cl)cc3)ccc2O1,-0.3
C[C@@H]1CN([C@@H](C)CO)C(=O)c2cccc(NC(=O)c3nc4ccccc4s3)c2O[C@@H]1CN(C)S(=O)(=O)c1cccs1,-2.8
C[C@H](CO)N1C[C@H](C)[C@@H](CN(C)Cc2ccc(Oc3ccccc3)cc2)Oc2c(NC(=O)c3ccncc3)cccc2C1=O,11
C[C@H](CO)N1C[C@H](C)[C@@H](CN(C)C)Oc2c(NS(=O)(=O)c3cn(C)cn3)cccc2C1=O,1.9
C[C@@H]1CN([C@H](C)CO)C(=O)c2cc(NC(=O)NC3CCCCC3)ccc2O[C@H]1CN(C)S(=O)(=O)c1cccs1,5.1
C[C@@H]1CN([C@@H](C)CO)C(=O)c2cc(N(C)C)ccc2O[C@@H](C)CCCCO[C@H]1CN(C)Cc1ccccc1,-2.4
C[C@@H]1CN([C@@H](C)CO)C(=O)Cc2cc(NC(=O)Nc3ccccc3)ccc2O[C@@H]1CN(C)CC1CC1,-3.3
C[C@@H]1CN([C@H](C)CO)C(=O)Cc2cc(NC(=O)Cn3cnnn3)ccc2O[C@H]1CN(C)S(=O)(=O)c1ccccc1,-1.2
Cc1noc(C)c1NC(=O)Nc1ccc2c(c1)C(=O)N([C@H](C)CO)C[C@H](C)[C@H](CN(C)C(=O)CCCN(C)C)OCCCC[C@H](C)O2,-4.1
C[C@H](CO)N1C[C@H](C)[C@H](CN(C)Cc2ccc3c(c2)OCO3)Oc2ccc(NC(=O)NC3CCCCC3)cc2C1=O,3.8
COc1ccc(CN(C)C[C@H]2Oc3c(NC(=O)c4ccc(-c5nccs5)cc4)cccc3C(=O)N([C@@H](C)CO)C[C@H]2C)cc1,-1.6
Cc1noc(C)c1NC(=O)N(C)C[C@H]1OCCCC[C@H](C)Oc2ccc(NC(=O)CCC(F)(F)F)cc2C(=O)N([C@@H](C)CO)C[C@@H]1C,0.2
COc1ccc(S(=O)(=O)N(C)C[C@H]2Oc3ccc(NC(=O)Nc4ccc(C(F)(F)F)cc4)cc3C(=O)N([C@H](C)CO)C[C@@H]2C)cc1,-1.0
C[C@H]1CN([C@@H](C)CO)C(=O)c2cc(NC(=O)C3CC3)ccc2O[C@H]1CN(C)Cc1ccncc1,?
C[C@H](CO)N1C[C@H](C)[C@H](CN(C)Cc2ccc(C(F)(F)F)cc2)Oc2ccc(NC(=O)CCN3CCOCC3)cc2CC1=O,2.5
C[C@H](CO)N1C[C@H](C)[C@@H](CN(C)Cc2ccc(C(=O)O)cc2)Oc2c(cccc2N(C)C)C1=O,2.3
C[C@H](CO)N1C[C@H](C)[C@@H](CN(C)C(=O)Nc2ccccc2F)OCc2cn(nn2)CCCC1=O,-0.1
CNC[C@@H]1Oc2c(NS(=O)(=O)c3ccc(OC)cc3)cccc2C(=O)N([C@H](C)CO)C[C@@H]1C,-2.0
C[C@H](CO)N1C[C@H](C)[C@@H](CN(C)C(=O)Nc2ccc3c(c2)OCO3)Oc2ccc(NC(=O)c3ccncc3)cc2C1=O,0.5
COc1ccc(CN(C)C[C@@H]2Oc3ccc(NC(=O)Nc4c(C)noc4C)cc3CC(=O)N([C@H](C)CO)C[C@H]2C)cc1,-4.4
C[C@H](CO)N1C[C@H](C)[C@H](CN(C)S(=O)(=O)c2ccccc2)Oc2ccc(NC(=O)Cn3cnnn3)cc2CC1=O,0.3
Cc1noc(C)c1NC(=O)N(C)C[C@@H]1OCCCC[C@@H](C)Oc2ccc(NS(C)(=O)=O)cc2C(=O)N([C@H](C)CO)C[C@@H]1C,9.5
SMILES,Ran FRET
C[C@@H]1CN([C@H](C)CO)C(=O)c2cccc(NS(=O)(=O)c3cn(C)cn3)c2O[C@@H]1CN(C)C(=O)Nc1ccc(C(F)(F)F)cc1,-3.4
CNC[C@@H]1Oc2ccc(NC(=O)Nc3cccc4ccccc34)cc2CC(=O)N([C@@H](C)CO)C[C@@H]1C,2.5
C[C@H]1CN([C@@H](C)CO)C(=O)Cc2cc(NC(=O)Nc3ccc(F)cc3)ccc2O[C@H]1CN(C)Cc1ccc(C(=O)O)cc1,0.2
C[C@H](CO)N1C[C@H](C)[C@@H](CN(C)C(=O)CCC(F)(F)F)OCCCC[C@H](C)Oc2ccc(NC(=O)Cc3ccccc3)cc2C1=O,-2.3
C[C@H]1CN([C@@H](C)CO)C(=O)CCCn2cc(nn2)CO[C@H]1CN(C)C,-3.5
C[C@@H]1CCCCO[C@H](CN(C)Cc2ccc(C(=O)O)cc2)[C@@H](C)CN([C@H](C)CO)C(=O)c2cc(NC(=O)Nc3ccc(F)cc3)ccc2O1,-1.3
C[C@H](CO)N1C[C@H](C)[C@H](CN(C)Cc2ccc(Cl)c(Cl)c2)Oc2ccc(NC(=O)C3CC3)cc2C1=O,0.4
C[C@@H]1CN([C@H](C)CO)C(=O)c2cc(NC(=O)c3ccncc3)ccc2O[C@@H]1CN(C)C(=O)NC1CCCCC1,-4.5
Cc1noc(C)c1S(=O)(=O)Nc1ccc2c(c1)C(=O)N([C@@H](C)CO)C[C@H](C)[C@@H](CN(C)C(=O)c1ccncc1)OCCCC[C@H](C)O2,-0.9
C[C@H](CO)N1C[C@H](C)[C@H](CN(C)Cc2ccc(F)cc2)Oc2ncccc2C1=O,0.6
COc1ccc(CN(C)C[C@H]2Oc3ccc(NS(=O)(=O)c4ccc(OC)cc4)cc3C(=O)N([C@H](C)CO)C[C@@H]2C)cc1,-4.5
C[C@@H]1CN([C@@H](C)CO)C(=O)c2cc(NC(=O)C3CC3)ccc2O[C@H]1CN(C)Cc1ccncc1,-6.0
Cc1cc(C(=O)Nc2cccc3c2O[C@H](CN(C)CC2CC2)[C@@H](C)CN([C@@H](C)CO)C3=O)n(C)n1,-3.4
C[C@H]1CN([C@@H](C)CO)C(=O)c2cc(NS(=O)(=O)c3cccs3)ccc2O[C@H]1CN(C)C(=O)Nc1ccc(F)cc1,-4.4
COC(=O)N(C)C[C@H]1OCc2cn(nn2)CCCC(=O)N([C@@H](C)CO)C[C@H]1C,18*
CC(C)NC(=O)Nc1ccc2c(c1)C(=O)N([C@H](C)CO)C[C@H](C)[C@@H](CN(C)C)O2,4.6
C[C@H]1CN([C@@H](C)CO)C(=O)c2cccc(NC(=O)Nc3ccc(F)cc3)c2O[C@@H]1CN(C)C,6.3
CC(C)NC(=O)Nc1ccc2c(c1)C(=O)N([C@@H](C)CO)C[C@@H](C)[C@@H](CN(C)S(=O)(=O)c1cn(C)cn1)OCCCC[C@H](C)O2,-3.1
C[C@@H]1CN([C@@H](C)CO)C(=O)c2cccc(NC(=O)NC3CCCCC3)c2O[C@@H]1CN(C)S(=O)(=O)c1cn(C)cn1,4.4
CNC[C@@H]1OCCCC[C@H](C)Oc2ccc(NS(=O)(=O)c3cn(C)cn3)cc2C(=O)N([C@@H](C)CO)C[C@@H]1C,-6.0
COc1ccc(CN(C)C[C@H]2Oc3ccc(NC(=O)Nc4ccc(F)cc4)cc3CC(=O)N([C@@H](C)CO)C[C@H]2C)cc1,1.1
COc1ccc(S(=O)(=O)Nc2cccc3c2O[C@@H](CN(C)CC2CC2)[C@H](C)CN([C@@H](C)CO)C3=O)cc1,1.6
C[C@H](CO)N1C[C@H](C)[C@H](CN(C)C(=O)Nc2ccc3c(c2)OCO3)Oc2ccc(NC(=O)Nc3cccc4ccccc34)cc2C1=O,-0.2
Cc1noc(C)c1NC(=O)Nc1cccc2c1O[C@@H](CN(C)C(=O)Nc1c(C)noc1C)[C@@H](C)CN([C@@H](C)CO)C2=O,-2.2

# High-throughput results as filed in PubChem.
